Sa growth inh: S. aureus growth inhibition at 42 and 30 °C, primary screen, LtaS inhibitor project, RN4220, two temperatures | OD600, 20 h, 42 °C; active compounds read low | relative growth, % (concentration not given with the values) | hit rate 0.53% among 170,000 | AID 720641, 2013;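 active = growth at 42 °C up to 50% and 20 or more points under that at 30 °C, or under 10% at both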;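 also: 300 nL library stock went into each well; scaled to the means of positive and negative controls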
HCMV UL50-53 inh: inhibitors of HCMV UL50-UL53 interaction, biochemical, HTRF; HCMV UL50-UL53 nuclear egress complex (human cytomegalovirus); normalized percent inhibition; inhibition, % (test concentration not listed); AID 1918969, 2023; hit rate 0.15% among 190,000;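 active = both replicates at 50% or more, plus weaker picks with an unusually low signal ratio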;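 also: stock transfer was 100 nL into about 20 µL; 0% = negative control wells and 100% = wells with untagged competitor protein; inactives centre near -12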
GIV Gai3 FP: inhibitors of GIV peptide binding to Galpha-i3, primary screen, biochemical, fluorescence polarization, FITC-GIV GBA peptide, rat Galphai3. Guanine nucleotide-binding protein G(i) subunit alpha-3 (Rattus norvegicus), P08753. 90 min; active compounds read low; scaled: aluminum fluoride 0%, vehicle 100%. hit rate 0.42% among 210,000. percent of control (FP), % (concentration not given with the values);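 active = replicate mean at 85% of control or lower, very high polarization wells dropped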;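 also: wells of about 15 µL received 100 nL stock; the first replicate is given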
Target sequence (P08753 whole entry, looked up): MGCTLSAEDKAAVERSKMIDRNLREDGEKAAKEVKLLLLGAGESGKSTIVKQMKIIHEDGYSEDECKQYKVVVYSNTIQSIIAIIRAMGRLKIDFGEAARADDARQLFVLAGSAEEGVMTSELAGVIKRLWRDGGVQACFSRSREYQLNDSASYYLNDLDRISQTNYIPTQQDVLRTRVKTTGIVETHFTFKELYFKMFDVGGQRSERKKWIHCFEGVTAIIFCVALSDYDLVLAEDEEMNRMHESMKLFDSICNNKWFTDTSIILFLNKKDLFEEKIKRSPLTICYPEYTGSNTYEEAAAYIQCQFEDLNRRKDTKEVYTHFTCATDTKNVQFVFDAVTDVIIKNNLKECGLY
Sa growth inh second temp: also measured in Sa growth inh; calls as there; relative growth, %; measured here: growth at 30 °C;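 optical density after 20 h as mean of two plates; 100% = untreated growth and lower means inhibition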
* = called active by the depositor; nt = not tested or not shown; & = joins results of further samples.

The first two records, to show the layout:
SMILES	Sa growth inh	Sa growth inh second temp	HCMV UL50-53 inh	GIV Gai3 FP
O=C(CN1CC(C(=O)N2CCOCC2)Oc2ccccc21)Nc1ccc2c(c1)CCC2 (stereo not given)	87.6	94.1	-21.0	nt
Nc1nc(SCCSc2ccc(F)cc2)n[nH]1	114.6	85.1	-9.3	nt

Results, from the first entry:
SMILES	Sa growth inh	Sa growth inh second temp	HCMV UL50-53 inh	GIV Gai3 FP
O=C(CN1CC(C(=O)N2CCOCC2)Oc2ccccc21)Nc1ccc2c(c1)CCC2 (stereo not given)	87.6	94.1	-21.0	nt
Nc1nc(SCCSc2ccc(F)cc2)n[nH]1	114.6	85.1	-9.3	nt
CC1(C(=O)NC2CCCCC2)CCC(=O)N1Cc1ccc2c(c1)OCO2 (stereo not given)	nt	nt	-33.1	107.3
COc1ccc(S(=O)(=O)N2CCCC2C(=O)n2nc(C)cc2C)cc1 (stereo not given)	116.7	96.3	nt	100.0
O=C(CN1C(=O)/C(=C/c2ccccc2)Sc2ccccc21)NC1CCCC1	111.2	92.2	nt	100.1
COc1cc2c(C(=O)N3CCC4(CC3)OCCO4)cn(CC(C)C)c(=O)c2cc1OC	92.5	85.9	nt	101.7
CC(Sc1cccc(C(F)(F)F)c1)C(=O)NC(N)=O (stereo not given)	90.7	84.3	-14.9	nt
C=CCN(CC=C)S(=O)(=O)c1ccc(C(=O)Nc2nnc(-c3cc(C)ccc3C)o2)cc1	1.7*	0.8*	-38.0	106.5
Cn1c(=O)n(Cc2ccccc2)c(=O)c2cc3c(nc21)CC(C)(C)OC3	nt	nt	-17.5	100.6
Cc1ccc(C(=O)Nc2cccc(-c3nc4ccccc4o3)c2)c(Cl)c1	107.8	93.5	-7.6	112.1
CC(C)CN(CC(C)C)C(=O)CCn1c(=O)oc2ccccc21	98.3	86.7	nt	106.2
Cn1c(=O)c2c(nc(N3CCCC3)n2CCSc2nc3ccccc3s2)n(C)c1=O	105.2	90.3	3.4	92.5
CCCc1nn2c(=O)cc(COC(=O)CNC(=O)COc3ccc(C)cc3)nc2s1	99.2	88.9	nt	103.7
COc1ccc(OC)c(CNC(=O)CN2Cc3ccccc3C2=O)c1	86.5	89.4	nt	96.9
Cn1cc(-c2cc3n(n2)CCC(=O)N3CCCC(=O)NCc2ccccc2Cl)c2ccccc21	101.8	105.2	nt	98.8
NCCSC1CC(=O)N(c2ccc(Cl)cc2)C1=O (stereo not given)	94.8	76.8	-1.2	104.3
CCc1nn(-c2ccccc2)c2nc(-c3ccc(O)cc3)c3cc(OC)c(OC)cc3c12	108.5	80.9	-41.9	107.2
Cc1ccc(NC(=O)c2ccccc2NC(=O)c2sc3ccccc3c2Cl)c(C(=O)c2ccccc2)c1	nt	nt	-17.0	103.7
N#Cc1nc(-c2ccc(S(=O)(=O)N3CCOCC3)cc2)oc1NC1CCCCC1	nt	nt	-33.2	104.1
COc1cc(CN(C(=O)c2ccc(OC(C)C)cc2)c2ccccn2)cc(OC)c1OC	99.3	76.7	7.5	109.1
O=C(C1CCCC1)N1CCCC1c1nc2ccccc2s1 (stereo not given)	93.9	93.2	-11.9	nt
Cc1ccccc1C1CC(=O)Nc2c1c(-c1ccccc1)nn2-c1ccccc1 (stereo not given)	nt	nt	-24.4	104.7
Oc1ccccc1N=Cc1ccccc1	32.6	18.0	-130.7	99.2
COCCn1c(C)cc(/C=C2/C(=O)N(c3ccccc3)c3ccccc32)c1C	95.3	85.9	nt	112.1
Cc1ccc(/C=N/N2C(=O)C3C(C2=O)C2C=CC3C23CC3)o1 (stereo not given)	103.0	79.7	-73.3	nt
O=C(COC(=O)c1c(F)cccc1F)c1cccs1	91.4	92.2	2.6	nt
COc1nc(-c2ccc(C)cc2)ccc1-c1noc(-c2ccccc2Br)n1	86.1	88.1	-27.3	110.0
NNC(=O)CNC(=O)c1cccs1	122.7	84.1	2.0	103.3
COc1ccc(-c2noc(CSc3nc(N)cc(=O)[nH]3)n2)cc1OC	105.1	91.7	nt	102.8
COC(=O)c1[nH]c(=O)c2ccccc2c1O	99.0	90.5	-28.3&-2.2	100.8
CN(C)CCN(C(=O)C1=COCCO1)c1nc2ccc(F)cc2s1	93.1	100.2	-0.1	100.9
O=C(c1ccc(CS(=O)(=O)c2ccccc2)o1)N1CCOCC1	123.8	102.2	7.2	99.8
Cc1cccc(NC(C(=O)O)c2ccccc2)c1 (stereo not given)	98.5	94.9	-2.4	108.6
CCOC(=O)c1sc(NC(=O)c2nc3ncccn3n2)c(C(=O)OC)c1C	87.5	91.2	-16.8	93.3
CCOc1ccc(N(C(C)C(=O)NCc2ccc(C)cc2)S(C)(=O)=O)cc1 (stereo not given)	105.7	76.8	nt	114.9
COc1cc(NS(=O)(=O)N2CCCC2)cc(OC)c1OC	114.3	92.8	1.5	nt
COc1cccc(NC(=O)Nc2ccc3c(c2)N(C)C(=O)c2ccccc2S3)c1	110.3	102.0	4.1	100.4
NC1=NN=C(c2ccccc2)CS1	44.4	24.6	-30.7	102.5
CCOc1ccc(C(C(=O)NC2CCCC2)N(Cc2ccco2)C(=O)Cn2nnc3ccccc32)cc1OC (stereo not given)	68.5	110.8	6.5	95.2
CCCN1C(=O)C(Cc2nc3ccccc3c(=O)n2-c2ccc(OC)cc2)c2cc(C)ccc21 (stereo not given)	103.8	90.3	-26.0	99.3
O=C(O)c1ccc2c(c1)C1C=CCC1C(c1cccc3ccccc13)N2 (stereo not given)	nt	nt	35.4*	109.2
Cc1ccc(CNC(=O)CCCc2nnc3n(C)c(=O)c4sccc4n23)cc1	106.1	89.6	nt	96.2
CCOC(=O)c1ccc(NC(=O)c2c(NCc3sccc3C)sc3c2CCC(C)C3)cc1 (stereo not given)	88.0	95.3	nt	102.4
COc1ccccc1-c1coc2cc(OC(C)C(=O)OCc3ccccc3)ccc2c1=O (stereo not given)	nt	nt	-5.2	96.7
COc1ccccc1NC(=O)CCn1c(C(F)(F)F)nc2cc(S(=O)(=O)N(C)C)ccc21	nt	nt	-0.1	103.9
CC1(C(=O)NC2CCCC2)Cn2c(cc3sccc32)C(=O)N1CCCN1CCOCC1 (stereo not given)	nt	nt	-6.3	95.7
COc1ccccc1CNC(=O)C1CCCN(S(=O)(=O)c2ccc3c(c2)CCCN3C(C)=O)C1 (stereo not given)	106.1	92.6	nt	102.3
Cc1nc(-c2ccc(C(=O)N3CCCCC3)cc2)cs1	104.5	100.2	-2.3	105.8&102.3
CC(C)NCc1ccc(-c2ccccc2Cl)o1	nt	nt	-19.7	106.8
CCN(CC)CCOC(=O)c1ccc2c(c1)OCCO2	nt	nt	6.5	111.3
Cc1ccc2[nH]c(=O)c3cc(C(=O)NC(C)CCc4ccco4)sc3c2c1 (stereo not given)	114.7	82.2	9.9	115.8
COc1ccc(/C=C/C(=O)C2CC2)cc1COc1cccc(C)c1C	103.3	71.5	nt	108.4
CCn1c(=NC(=O)c2cccs2)sc2cc(OC)c(OC)cc21	110.2	95.6	-6.7	113.9
COc1ccc(-c2c(C#N)c(SCC(=O)OC(C)C)nc(C)c2C(=O)Nc2ccccc2)cc1	nt	nt	-4.2	102.8
CCOC(=O)CSc1sc(C(=O)OCC)c(N)c1C#N	76.9	74.1	2.2	nt
CN(C(=O)c1ccc(C#N)cc1)C1CCCCC1	84.2	93.8	-3.9	nt
CCn1cc(C(=O)NCCc2ccc(OC)c(OC)c2)c(=O)c2cc(S(=O)(=O)N3CCC(C)CC3)ccc21	95.0	88.4	-11.9	106.5
Cc1ccc(S(=O)(=O)N2N=C(C(C)C)CC2(O)C(F)(F)F)cc1 (stereo not given)	96.8	78.5	-11.2	100.9
CCOC(=O)C1=C(C)NC(=O)CC1c1ccccc1Cl (stereo not given)	nt	nt	4.2	106.0
O=C(Nc1c2c(nn1-c1ccc(Cl)cc1)CS(=O)(=O)C2)c1ccccc1F	99.4	90.4	nt	104.7

Continued.
SMILES	Sa growth inh	Sa growth inh second temp	HCMV UL50-53 inh	GIV Gai3 FP
CCCC(=O)Nc1nonc1-c1ccc(OC)cc1	108.5	90.1	-5.2	107.6
Cc1noc(C)c1CCNC(=O)CSc1ncnc2c1sc1cccc(F)c12	nt	nt	-21.4	146.0
CN(C(=O)CSc1nc(O)cc(=O)n1-c1ccccc1F)c1ccccc1	96.7	104.7	-4.0	112.3
CCCc1cc(=O)c2c(O)cccc2o1	89.5	62.6	-16.6	99.1
CCOc1ccc(CNC(=O)CCC(=O)N2CC(C)Sc3ccccc32)cc1 (stereo not given)	123.7	83.0	nt	104.0
CCCN(CCO)CC1CC=CCC1 (stereo not given)	137.9	87.2	-1.0	nt
Nc1nc2c(s1)CCc1c-2cnn1-c1ccccc1	109.7	31.1	62.7*	nt
O=S(=O)(c1ccccc1)c1nc(-c2cccs2)oc1SCc1ccccc1Cl	97.2	90.6	-7.1	106.0
NS(=O)(=O)c1ccc(NC(=O)CSc2ccccc2)cc1	100.7	82.2	-25.3	101.4
Cn1c(C(=O)Nc2ccccc2)cc2sccc21	113.4	66.8	-9.9	104.4
CCc1ccccc1N(C)C(=O)c1sc2nc3n(c(=O)c2c1C)CCCCC3	102.8	94.0	-11.4	94.9
COCc1cc(C)nc2c1C(=O)NC(c1ccc(F)cc1)N2Cc1ccccc1 (stereo not given)	107.1	97.8	nt	105.5

Record cards, from the list above. Order of screens: Sa growth inh, Sa growth inh second temp, HCMV UL50-53 inh, GIV Gai3 FP
Results for CN(C(=O)CSc1nc(O)cc(=O)n1-c1ccccc1F)c1ccccc1 : 96.7, 104.7, -4.0, 112.3
Results for Cn1c(C(=O)Nc2ccccc2)cc2sccc21 : 113.4, 66.8, -9.9, 104.4
Results for CCCC(=O)Nc1nonc1-c1ccc(OC)cc1 : 108.5, 90.1, -5.2, 107.6
Results for CCc1ccccc1N(C)C(=O)c1sc2nc3n(c(=O)c2c1C)CCCCC3 : 102.8, 94.0, -11.4, 94.9

Continued.
SMILES	Sa growth inh	Sa growth inh second temp	HCMV UL50-53 inh	GIV Gai3 FP
O=C(O)CSc1cc(Cl)ccc1Cl	96.1	73.5	-5.9	121.3
CN(C)C(=O)COC(=O)c1cccc(Oc2ccccc2)c1	114.3	108.2	-0.1	nt
O=C(Cc1ccc(S(=O)(=O)N2CCCC2)s1)N1CCOCC1	90.7	90.5	-2.2	nt
O=C(Nc1ccccc1F)c1nc(SCc2ccccc2F)ncc1Cl	104.9	92.8	-6.7	105.6
c1cncc(Oc2nc(-c3cccnc3)nc3ccccc23)c1	100.9	88.6	-25.9	nt
CC1CCCCC1NC(=O)c1cccn2c(=O)c3c4c(sc3nc12)CCCC4 (stereo not given)	94.0	74.9	nt	98.0
O=C(CSC(F)(F)F)Nc1ccccn1	89.5	80.9	-10.5	nt
CCSC1=NC2(CCN(C(=O)NC3CCCCC3)CC2)N=C1c1ccc(C)cc1	93.9	83.6	nt	108.1
COc1cccc2cc(C(=O)NCCc3c(C)[nH]c4ccc(Br)cc34)c(=O)oc12	86.5	107.4	4.4	105.2
Cc1ccc(N2CC(c3nnc(NC(=O)c4ccccc4Br)o3)CC2=O)cc1 (stereo not given)	nt	nt	-20.5	99.5
O=C(Nc1ncc(-c2ccc(Br)cc2)s1)c1sc2ccccc2c1Cl	nt	nt	-25.5	102.7
Cc1[nH]c2ccccc2c1C(c1c(C)[nH]c2ccccc12)C(C)C	188.8	71.3	nt	103.5

Quoted at random: 4 entries already listed.
SMILES	Sa growth inh	Sa growth inh second temp	HCMV UL50-53 inh	GIV Gai3 FP
Cc1ccc(S(=O)(=O)N2N=C(C(C)C)CC2(O)C(F)(F)F)cc1 (stereo not given)	96.8	78.5	-11.2	100.9
CCCN(CCO)CC1CC=CCC1 (stereo not given)	137.9	87.2	-1.0	nt
Nc1nc(SCCSc2ccc(F)cc2)n[nH]1	114.6	85.1	-9.3	nt
CCOC(=O)CSc1sc(C(=O)OCC)c(N)c1C#N	76.9	74.1	2.2	nt

Additional compounds follow:
SMILES	Sa growth inh	Sa growth inh second temp	HCMV UL50-53 inh	GIV Gai3 FP
S=c1[nH]nc(Cc2ccccc2)n1Cc1ccco1	105.9	91.2	2.4	111.6
Cn1c(=O)c2c(nc3sccn32)n(C)c1=O	94.8	96.4	-2.3	nt
c1nc(NCCCN2CCOCC2)c2c3c(sc2n1)CCCCC3	103.6	106.7	3.8	98.9
COc1cccc2c1cc1c(=O)n(CC(=O)N3CCN(c4cccc(C)c4)C(C)C3)nc(C)n12 (stereo not given)	103.9	88.9	4.9	104.0
Cc1ccc(Sc2ncccc2C(=O)O)c(C)c1	72.3	91.0	-36.6	nt
O=C(c1cc2c(s1)-c1ccc(Cl)cc1S(=O)(=O)C2)N1CCCCC1c1cccnc1 (stereo not given)	nt	nt	-54.5	105.2
CN(C(=O)CN(C)S(=O)(=O)c1cccc2nsnc12)c1ccc(Br)cc1	130.1	90.7	-58.9	102.6
CC(C)c1noc(-c2ccccc2OCC(=O)Nc2ccccc2[N+](=O)[O-])n1	101.5	85.7	-47.3	106.3
Cc1cccc(C)c1NC(=O)NN1C(C)CCCC1C (stereo not given)	104.7	91.2	nt	100.8
COc1ccc(OCC(O)CNC(=O)c2cccnc2Oc2ccc(Cl)cc2)cc1 (stereo not given)	120.6	93.7	10.3	107.1
COc1ccc(CNC(=O)C(C)N2CCC(c3nc4ccccc4o3)CC2)cc1 (stereo not given)	104.6	96.0	-25.0	nt
COc1ccc(S(=O)(=O)Nc2ccc3c(c2)CCCN3S(C)(=O)=O)cc1OC	nt	nt	-7.1	109.2

Assay outcomes: PubChem BioAssay, ICCB-Longwood Screening Facility, Harvard Medical School
